KCNQ2 pot: potentiators of rat KCNQ2 potassium channel; CHO-K1 KCNQ2, FluxOR thallium flux fluorescence; hits give high values; B-score at 10 µM; hit rate 0.54% among 310,000; AID 2239, 2010;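 active = fluorescence ratio B-score at least 3 SD of library B-scores, with initial fluorescence B-score within 3 SD, cut at about 5.3 in these data; same plate scores as AID 2156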;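 note: B-score of peak minus minimum over baseline fluorescence ratio after K+ and Tl+ stimulus; positive B-score means potentiation of KCNQ2 with more thallium influx and brighter signal; only the inactives scoring about 0 or higher are listed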
Target sequence (O88943 whole entry, looked up): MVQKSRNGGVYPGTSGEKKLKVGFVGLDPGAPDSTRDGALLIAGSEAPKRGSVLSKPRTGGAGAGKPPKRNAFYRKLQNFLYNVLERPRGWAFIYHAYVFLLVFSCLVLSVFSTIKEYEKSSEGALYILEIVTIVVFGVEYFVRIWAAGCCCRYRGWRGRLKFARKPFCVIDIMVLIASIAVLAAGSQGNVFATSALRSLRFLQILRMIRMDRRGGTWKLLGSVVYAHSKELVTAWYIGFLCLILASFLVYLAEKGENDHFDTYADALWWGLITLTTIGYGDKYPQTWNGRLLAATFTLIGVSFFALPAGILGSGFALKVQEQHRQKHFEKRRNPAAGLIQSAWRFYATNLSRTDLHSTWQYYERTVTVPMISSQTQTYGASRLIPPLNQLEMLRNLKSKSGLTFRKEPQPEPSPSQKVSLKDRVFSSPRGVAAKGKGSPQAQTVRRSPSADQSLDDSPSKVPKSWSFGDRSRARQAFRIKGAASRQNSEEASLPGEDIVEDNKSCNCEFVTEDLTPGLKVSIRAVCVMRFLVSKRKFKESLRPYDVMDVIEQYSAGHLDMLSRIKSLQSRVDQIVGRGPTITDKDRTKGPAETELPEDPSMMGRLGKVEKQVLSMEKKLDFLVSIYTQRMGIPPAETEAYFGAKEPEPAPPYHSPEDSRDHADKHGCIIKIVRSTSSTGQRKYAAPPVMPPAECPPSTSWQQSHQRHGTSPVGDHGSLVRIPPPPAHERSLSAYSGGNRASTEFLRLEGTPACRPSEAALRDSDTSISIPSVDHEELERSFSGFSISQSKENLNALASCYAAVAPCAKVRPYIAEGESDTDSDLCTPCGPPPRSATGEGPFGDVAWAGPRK
KCNQ2 pot baseline: also measured in KCNQ2 pot; calls as there; B-score; compound at 10 µM; measured here: initial fluorescence intensity artifact check;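 brightness before thallium and not channel activity; 0 = typical well and far values either way flag optical interference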
Starred values were filed as active, the others as inactive. Some of the compounds tested, so the mix of outcomes need not match the whole.

SMILES	KCNQ2 pot	KCNQ2 pot baseline
C#CCOCCOCCOCCNc1nc(N2CCN(C(=O)C([C@@H](C)CC)n3cc(C(N)CC(C)C)nn3)CC2)nc(N2CCN(C(=O)[C@H](CCCCN)n3cc(C(N)COC(=O)C(F)(F)F)nn3)CC2)n1 (some centres undefined)	1.3	0.74
CC1CN(C2CCN(C(=O)c3cccc(Cl)c3)CC2)CC(C)O1 (centres undefined)	0.05	-0.33
COc1ccc(C(=O)NNC(=O)C(=O)N2CCCCC2)cc1OC	0.06	-1.2
COc1ccc2nc(N3CCOCC3)cc(C)c2c1	0.62	-1.6
CCC(=O)c1c(NCCc2ccccc2)cc(C)oc1=O	0.05	-0.27
COc1cc(N=c2c([N+](=O)[O-])nn(-c3ccc4c(c3)OCCO4)n2O)cc(OC)c1	0.69	-0.6
Cc1nn2c(NCCOCCO)c3c(nc2c1-c1ccccc1)CCC3	0.08	0.75
O=C(NCc1ccc2c(c1)OCO2)C(=O)NC1CCCCC1	0.94	-0.02
Cc1ccc(S(=O)(=O)Nn2cnnc2)cc1	0.62	-2.1
COc1cc(NC(=O)c2ccc(Cl)cc2Cl)ccc1-c1cc2ccccc2oc1=O	1.1	0.07
N#C/C(=C\c1ccc(-c2ccccc2Cl)o1)C(=O)Nc1nc2ccccc2s1	2.1	1.3
O=C(CCCCC(=O)NCc1cccs1)NCc1cccs1	1	-2.5
CN(CC(=O)Nc1nc2ccc(F)cc2s1)S(=O)(=O)c1ccc(Cl)cc1	0.01	-1.1
Cc1ccc(C)c(SCC(=O)NC(=O)Nc2ccc3c(c2)OCCO3)c1	0.18	-1.1
COc1cc(-c2ccc3c(=O)c4ccccc4n(C)c3c2)cc(OC)c1OC	2.2	-0.02
COc1cccc(-n2cnc3sc4c(c3c2=O)CCC4)c1	0.13	0.84
CCCC(=O)NNc1c2ccccc2nc2ccccc12	1.3	-2.2
Cc1cc(C)n(CCNC(=O)c2cc(COc3c(F)cccc3F)on2)n1	1.5	-0.14
COc1ccc(NS(=O)(=O)c2ccc(O)c(NC(=O)c3cc4c(C)nn(-c5ccc(F)cc5)c4s3)c2)cc1	1.4	-1.4
Cc1cc(NC(=O)CSc2ccnc(=O)[nH]2)no1	1.2	0.38
COc1cc(OC)c(NC(=O)C2CC(=O)N(c3ccc4c(c3)OCCO4)C2)cc1Cl (centres undefined)	0.35	-0.28
COc1cccc(C2Nc3ccccc3NC3=C2C(=O)CC(C)(C)C3)c1 (centres undefined)	1.6	-0.11
COc1cccc(-c2nc(SCC(=O)Nc3nc(-c4ccccc4)c(C)s3)[nH]c(=O)c2C#N)c1	1.4	-2.8
C=CCNc1nc(C(=O)OCC)nc2ccccc12	1.1	-1.1
COc1cc(OC)cc(C(=O)NCCc2ccc(OC)c(OC)c2)c1	1.8	1.9
CCN(CC)CCCNC(=O)/C(=C\c1cccn1C)NC(=O)c1cccs1	1.6	-1.9
CCC(C)Oc1ccc(/C=C/c2[nH]c(=O)[nH]c(=O)c2[N+](=O)[O-])cc1OC (centres undefined)	0.04	-0.34
O=C(CSC(=S)N1CCCCC1)c1ccccc1	0.39	0
O=C(COC(=O)c1ccncc1)Nc1ccccc1	0.1	1.1
CCNC(=O)C(=O)Nc1ccc([N+](=O)[O-])cc1	0.94	1.1
Cn1cc(C(=O)NC2C3CC4CC(C3)CC2C4)cn1 (centres undefined)	0.12	0.32
Cc1cc(C)n(CCNC(=O)c2cc(COc3ccc(F)cc3Cl)on2)n1	0.95	-0.74
CCCOCCc1nnc(N)s1	0.49	-0.41
COc1ccc(C(=O)N2CCN(C(=O)c3ccco3)CC2)cc1OC	0.01	0.96
Cc1onc(-c2c(F)cccc2Cl)c1C(=O)NCCN1CCNC1=O	0.06	-0.01
Cc1ccc(NC2CCCN(C(=O)c3snnc3C)C2)cc1C (centres undefined)	0.57	-1.6
COc1ccc(C(=O)NCc2ccccn2)cc1[N+](=O)[O-]	1.1	0.06
COc1ccc(OCC(=O)N2CCN(C(=O)c3cccc4ccccc34)CC2)cc1	0.12	1
O=c1c2ccccc2nnn1CSc1nnc(-c2ccc3c(c2)OCO3)o1	0.04	0.48
O=c1[nH]c(=S)c2c(n1-c1ccccc1)CCC2	0.06	0.2
O=[N+]([O-])c1cc(N=Nc2ccc3ccccc3c2)ccc1O	0.51	-0.1
CC(=O)/C(=N\Nc1ccc(C)cc1)Sc1nncn1C	0.12	-0.16
Cc1cnc(NC(=O)c2cccc(S(=O)(=O)N3CC(C)OC(C)C3)c2)s1 (centres undefined)	0.25	-1.5
COc1ccc(S(=O)(=O)NCc2cccnc2)cc1C(=O)N1CCCCC1	0.71	-0.22
Cc1ccc(CN(CC(=O)NCC2CCCO2)S(=O)(=O)c2ccc(C)cc2)cc1 (centres undefined)	0.72	0.35
COc1ccc(NS(=O)(=O)c2cccc(C(=O)NNC(=O)CN3C(=O)NC(C)(C)C3=O)c2)cc1	0.79	-0.97
CC(=O)Nc1ccc(C(=O)NCCCSc2ccccc2)cc1	1.2	0.32
O=C(CSCC(=O)Nc1cccc([N+](=O)[O-])c1)Nc1ccccc1	0.5	-0.03
CC1CCCCN1C(=O)COc1ccc(NC(=O)c2ccco2)cc1 (centres undefined)	0.44	1
O=C(Cn1c(=O)oc2ccccc21)Nc1ccc(F)cc1	0.03	0.83
Cc1n[nH]c(=O)nc1N1CCc2ccccc2C1	2.4	0.56
N#Cc1ccc(C(=O)N/N=C/c2cn(CC(=O)O)c3ccccc23)c(F)c1	0.24	-0.3
COc1ccc(-n2nc(C(=O)NCC(=O)N3CCN(c4ccccc4F)CC3)c3ccccc3c2=O)cc1OC	1.3	-0.86
c1cc2nnnn2nc1N1CCCCCC1	0.08	-0.91
O=C(CSC1=NCCS1)NC(NC(=O)CSC1=NCCS1)c1ccccc1	0.49	-0.75
CCn1c(=O)c(C(=O)Nc2nc3ccccc3[nH]2)c(O)c2ccccc21	1.1	-1.1
COc1ccc(C(CNC(=O)c2ccc(NS(=O)(=O)c3ccc4c(c3)OCCO4)cc2)N(C)C)cc1 (centres undefined)	0.71	-1.1
CC(C)CNC(=O)c1cc(S(=O)(=O)N2CCOCC2)ccc1N1CCCC1	0.8	-0.38
COc1ccc(N2CCN(C(CNC(=O)C(=O)NCc3cccs3)c3ccco3)CC2)cc1 (centres undefined)	1.4	-0.57
CCCCCCCn1ccc(O)c(CC(=O)OC)c1=O	0.58	0.6
Next structures
SMILES	KCNQ2 pot	KCNQ2 pot baseline
O=C(Nc1ccc(Cl)cc1)Nc1cccc2nsnc12	0.7	-0.39
COc1cccc(CNc2ccc3[nH]c(=O)[nH]c3c2)c1OCc1ccccc1	7.9*	0.34*
COCCn1c(SCC#N)nnc1-c1ccc2c(c1)OCO2	1.3	0.11
CCC(C)c1ccc(O)c(NC(=O)c2ncn[nH]2)c1 (centres undefined)	0.98	2.5
O=C(CSc1nnc(-c2cccnc2)n1-c1ccccc1)Nc1ccccn1	0.06	0.15
O=C(c1cc([N+](=O)[O-])ccc1N1CCCC1)N1CCCCC1	0.97	-0.01
COC(=O)[C@H](C)NC(=O)/C=C/c1ccc(OC)cc1	3	0.05
COc1ccc(C(=S)NC2CCCCC2)cc1	0.02	0.07
CC1CCCCN1S(=O)(=O)c1ccc2c(c1)oc(=O)n2CC(=O)O (centres undefined)	1	-1.4
Cn1c(=O)c2cc(S(=O)(=O)NCCC(=O)Nc3ccccc3F)ccc2n(C)c1=O	0.17	0.46
C/C(CC(=O)Nc1ccccn1)=N\NC(=O)C(=O)Nc1cccc(Cl)c1C	0.26	1.6
CC(C)CC(=O)c1c[nH]c(C(=O)NCc2ccccc2)c1	0.73	1
Cc1occc1-c1nnc(SCC(=O)Nc2ccccc2)n1C	0.52	1.4
COc1cc(OC)cc(C(=O)Nc2cccc3cccnc23)c1	0.47	0.84
Cc1cc2nc(-c3cccc(NC(=O)c4ccc(Br)o4)c3)oc2cc1C	0.06	-0.16
Cc1ccc(O)c(NC(=O)C2=CC(c3ccco3)=NS(=O)(=O)N2C)c1	0.06	-0.25
Clc1ccc(OCc2nnc3n2N=C(c2ccc4c(c2)OCCO4)CS3)c(Cl)c1	0.52	0.46
O=Cc1cc(N=Nc2ccc(S(=O)(=O)O)cc2)ccc1O	0.47	-1.1
CCC(C)C(Nc1ccc(C(=O)OC)cc1[N+](=O)[O-])C(=O)OC (centres undefined)	0.73	-0.04
CCN(CC)CCN(C)C(=O)c1ccc(OC2CCN(C(=O)C3CC3)CC2)cc1	1.7	-1.5
OC(CN1CCOCC1)CN1CCOCC1	1.3	0.17
CC(=O)c1cc2c(cc1NC(=O)C1CC1)OCO2	0.57	-2.1
CC1(C)Oc2ccc3ccc(=O)oc3c2-c2cnoc21	1.2	-0.74
Cn1cnc(S(=O)(=O)Nc2ccc(OC(F)F)cc2)c1	1.6	-0.21
COC(=O)Cc1[nH]nc2c1C(c1c[nH]c3ccccc13)C(C#N)=C(N)O2 (centres undefined)	0.25	0.02
CCCN(Cc1ccccc1)C(=O)Nc1ccc2c(c1)nnn2C	0.14	-0.02
CCSC(C)CC1C/C(=N/O)c2c(CC)noc2C1 (centres undefined)	1.4	0.44
CC1(C)C2CCC1(CS(=O)(=O)N1CCC(C(N)=O)CC1)C(=O)C2 (centres undefined)	0.26	0.04
O=C(N=C1SC2CS(=O)(=O)CC2N1Cc1ccccc1Cl)C1CCCO1 (centres undefined)	1.2	0.72
CCSc1nc(C2CC2)cc(-c2ccco2)c1C#N	0.09	0.68
Cc1ccc(-c2nc(NC(=O)CSc3nnc4scc(-c5ccccc5)n34)ns2)cc1	0.06	0.37
CCn1c(SCC(=O)Nc2cc(C)on2)nnc1-c1ccc(S(=O)(=O)N2CCN(C)CC2)cc1	0.12	-1.1
COC(=O)c1cc(NC(=O)/C=C/c2ccccc2)ccc1O	0.55	0.57
Cc1cc2c3c(c1)C(C)CC(C)(C)N3C(=O)C2=C(C#N)C#N (centres undefined)	1.2	2.6
CCN1/C(=C2/SC(=S)NC2=O)Sc2ccccc21	0.79	-0.38
COC(=O)c1ccc(C2c3c(oc4cc(C)c(C)cc4c3=O)C(=O)N2CCCN(C)C)cc1 (centres undefined)	1.6	-0.16

A draw from above in order of formula weight, largest number first.
SMILES	KCNQ2 pot	KCNQ2 pot baseline
C#CCOCCOCCOCCNc1nc(N2CCN(C(=O)C([C@@H](C)CC)n3cc(C(N)CC(C)C)nn3)CC2)nc(N2CCN(C(=O)[C@H](CCCCN)n3cc(C(N)COC(=O)C(F)(F)F)nn3)CC2)n1 (some centres undefined)	1.3	0.74
COc1ccc(NS(=O)(=O)c2ccc(O)c(NC(=O)c3cc4c(C)nn(-c5ccc(F)cc5)c4s3)c2)cc1	1.4	-1.4
COc1ccc(-n2nc(C(=O)NCC(=O)N3CCN(c4ccccc4F)CC3)c3ccccc3c2=O)cc1OC	1.3	-0.86
N#C/C(=C\c1ccc(-c2ccccc2Cl)o1)C(=O)Nc1nc2ccccc2s1	2.1	1.3
COc1ccc(S(=O)(=O)NCc2cccnc2)cc1C(=O)N1CCCCC1	0.71	-0.22
C/C(CC(=O)Nc1ccccn1)=N\NC(=O)C(=O)Nc1cccc(Cl)c1C	0.26	1.6
COc1cc(-c2ccc3c(=O)c4ccccc4n(C)c3c2)cc(OC)c1OC	2.2	-0.02
N#Cc1ccc(C(=O)N/N=C/c2cn(CC(=O)O)c3ccccc23)c(F)c1	0.24	-0.3
CCn1c(=O)c(C(=O)Nc2nc3ccccc3[nH]2)c(O)c2ccccc21	1.1	-1.1
O=C(Nc1ccc(Cl)cc1)Nc1cccc2nsnc12	0.7	-0.39
CC(=O)/C(=N\Nc1ccc(C)cc1)Sc1nncn1C	0.12	-0.16
O=C(Cn1c(=O)oc2ccccc21)Nc1ccc(F)cc1	0.03	0.83
CCSC(C)CC1C/C(=N/O)c2c(CC)noc2C1 (centres undefined)	1.4	0.44
Cc1cc(NC(=O)CSc2ccnc(=O)[nH]2)no1	1.2	0.38
CCC(C)c1ccc(O)c(NC(=O)c2ncn[nH]2)c1 (centres undefined)	0.98	2.5
COc1ccc2nc(N3CCOCC3)cc(C)c2c1	0.62	-1.6

Additional compounds follow:
SMILES	KCNQ2 pot	KCNQ2 pot baseline
CCn1cc(S(=O)(=O)Nc2cc(C(=O)OC)ccc2C)cn1	0.21	0.04
Cc1ccc(-c2cn3cc(C)ccc3n2)cc1	1.4	-0.04
COc1ccc(OC)c(CN(CCN2CCOCC2)C(=O)Nc2ccccc2)c1	0.15	0.94
CCOC(=O)c1c(NC(=O)CSc2nc3ccccc3s2)sc(C(C)=O)c1C	0.82	-0.09
CN1CCN(CCCNC(=O)c2ccc(CSCc3cccc(Cl)c3)o2)CC1	1.2	-0.78
COC(=O)c1sccc1NC(=O)CC1C(=O)NCCN1C(=O)c1ccc(N(C)C)cc1 (centres undefined)	0.78	1.2
Cc1cc(C(F)(F)F)n2ncc(C(=O)O)c2n1	0.66	0.04
CC(C)n1c(Oc2ccc(F)cc2)nc2c1c(=O)n(C)c(=O)n2C	0.05	1.8
Cc1ccc(Oc2ccc(OCC(=O)NC(C)C(=O)O)cc2)cc1 (centres undefined)	0.89	0.57
CCOc1ccc(NC(=O)C2CCCN(C(=O)Nc3ccccc3)C2)cc1 (centres undefined)	1.7	0.82
O=C(CNC(=O)c1cccc(OC(F)F)c1)OCn1nnc2ccccc2c1=O	0.76	0.27
Nc1ccc(S(=O)(=O)Nc2nccc(/C=C/c3ccc(Cl)cc3)n2)cc1	0.69	0.56
Cc1cnc(NCCc2ccccc2)s1	0.28	0.13
O=C(N/N=C/c1ccc2c(c1)OCO2)c1ccc(COCC(F)(F)C(F)F)cc1	2.8	-0.41
Cc1cccc(C(=O)Nc2sc3c(c2C(=O)O)CCC3)c1	0.28	-0.57
CCOP(=O)(c1ccc(N(C)C)cc1)C(O)c1cc(OC)c(OC)c(OC)c1 (centres undefined)	1.1	-0.11
CC(C)OC(=O)Nc1ccc2c(c1)N(C(=O)CCN(C)C)c1ccccc1CC2	1.9	-0.54
Cc1cc(-c2n[nH]c(=S)n2/N=C/c2cccs2)n[nH]1	0.08	0.2
CC(C(=O)NC1=NCCS1)N1C(=O)C2CC=CCC2C1=O (centres undefined)	0.4	0.71
CC(C)N1C(=O)S/C(=C\c2ccc(-c3ccc(Cl)c(C(=O)O)c3)o2)C1=O	0.79	-0.27
